Source: PubChem BioAssay
A1 apoptosis 2 = A1 inhibition read as caspase activation. caspase activation, % (no concentration beside the values). 24,000 tested, under 10 active. MEF A1-2A-BIM cells, caspase-Glo luminescence, 3 h; percent of clofoctol response, DMSO zero. AID 2465; in the data active = caspase activation above about 5.9%; inconclusive = no clear call, values can overlap the other calls; inactive = below about 2.2%;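 also: wells of about 30 µL received 50 nL stock; the first replicate is given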
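Material: mouse embryonic fibroblasts co-expressing A1 and BIM (A1-2A-BIM), primed for A1 dependence / Quantity: 2500 cells/well / Buffer or medium: RPMI-1640 growth medium with 10% FBS / Doses: 50 nL compound per well, pinned / Schedule: 3 h compound exposure at 37 °C / Signal: Caspase-Glo luminescence (DEVD substrate) / Measure: Caspase-3/7 activation, seen as rise in luminescence signal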
* = called active by the depositor; ? = inconclusive. A portion of the library. The share of hits here may be higher or lower than overall.

SMILES | A1 apoptosis 2
C[C@@H]1CN([C@H](C)CO)C(=O)c2cc(NS(=O)(=O)c3ccc(Cl)cc3)ccc2O[C@H]1CN(C)C(=O)NC1CCCCC1 | 1.0
CC(C)NC(=O)N(C)C[C@H]1Oc2c(NC(=O)NC3CCCCC3)cccc2C(=O)N([C@@H](C)CO)C[C@H]1C | 0.1
C[C@@H]1CN([C@H](C)CO)C(=O)c2cc(NS(=O)(=O)c3ccc(F)cc3)ccc2O[C@H]1CN(C)Cc1ccc2c(c1)OCO2 | 0.5
C[C@H]1CCCCO[C@H](CN(C)C(=O)Nc2ccc(C(F)(F)F)cc2)[C@@H](C)CN([C@@H](C)CO)C(=O)c2cc(NC(=O)NC3CCCCC3)ccc2O1 | 1.8
COc1ccc(C#Cc2ccc3c(c2)[C@]2(C(=O)N3)[C@H](C(=O)Nc3nc4ccccc4s3)[C@H]3C(=O)O[C@H](c4ccccc4)[C@H](c4ccccc4)N3[C@@H]2c2ccc(OCCO)cc2)cc1 | -0.1
C[C@H]1CCCCO[C@H](CN(C)C(=O)c2ccccc2)[C@@H](C)CN([C@@H](C)CO)C(=O)c2cc(NC(=O)Nc3ccc4c(c3)OCO4)ccc2O1 | 0.5
C[C@@H]1CCCCO[C@@H](CN(C)C(=O)c2ccccc2)[C@@H](C)CN([C@@H](C)CO)C(=O)c2cc(NS(C)(=O)=O)ccc2O1 | 0.4
C[C@@H]1CCCCO[C@@H](CN(C)C)[C@@H](C)CN([C@@H](C)CO)C(=O)c2cc(NC(=O)CCC(F)(F)F)ccc2O1 | 0.9
C[C@@H]1CN([C@H](C)CO)C(=O)c2cc(NS(=O)(=O)c3ccc(F)cc3)ccc2O[C@@H]1CN(C)Cc1ccc(-c2ccccc2)cc1 | 0.3
COc1ccc(NC(=O)Nc2ccc3c(c2)C(=O)N([C@H](C)CO)C[C@@H](C)[C@@H](CN(C)S(=O)(=O)c2cn(C)cn2)OCCCC[C@H](C)O3)cc1 | -0.6
C[C@H](CO)N1C[C@H](C)[C@@H](CN(C)C)Oc2c(NS(C)(=O)=O)cccc2C1=O | -0.6
COc1ccc(S(=O)(=O)Nc2ccc3c(c2)C(=O)N([C@@H](C)CO)C[C@H](C)[C@@H](CN(C)CC2CCCCC2)OCCCC[C@H](C)O3)cc1 | -0.3
C[C@H]1CN([C@@H](C)CO)C(=O)c2cc(NS(=O)(=O)c3cn(C)cn3)ccc2O[C@H]1CN(C)S(=O)(=O)c1cccs1 | -0.3
C[C@H]1CN([C@@H](C)CO)C(=O)c2cc(NS(=O)(=O)c3ccc(F)cc3)ccc2O[C@@H]1CN(C)C(=O)Nc1ccc2c(c1)OCO2 | 1.1
C[C@@H]1CN([C@H](C)CO)C(=O)Cc2cc(NC(=O)C3CC3)ccc2O[C@H]1CN(C)S(=O)(=O)c1ccccc1 | -0.9
Cc1ccc(S(=O)(=O)N(C)C[C@H]2Oc3c(NS(=O)(=O)c4ccc(F)cc4)cccc3C(=O)N([C@@H](C)CO)C[C@H]2C)cc1 | -0.6
O=C(N/N=C/c1ccc(N(c2ccccc2)c2ccccc2)cc1)c1ccccc1O | 1.3
COc1ccc(CN(C)C[C@H]2Oc3c(NC(=O)Nc4ccccc4)cccc3C(=O)N([C@@H](C)CO)C[C@H]2C)cc1 | 0.3
COC(=O)CCCCCCC(=O)N/N=C/c1cccs1 | 0.4
C[C@@H]1CN([C@H](C)CO)C(=O)c2cc(NC(=O)Cc3ccccc3)ccc2O[C@H]1CN(C)CC1CC1 | 1.0
C[C@H]1CCCCO[C@H](CN(C)C(=O)Nc2ccccc2)[C@@H](C)CN([C@@H](C)CO)C(=O)c2cc(NC(=O)c3ccncc3)ccc2O1 | 0.5
C[C@H](CO)N1C[C@H](C)[C@H](CN(C)Cc2ccc3c(c2)OCO3)Oc2ccc(NC(=O)CCN3CCOCC3)cc2C1=O | -1.8
C[C@@H]1CN([C@H](C)CO)C(=O)c2cccc(NC(=O)Nc3ccc(F)cc3)c2O[C@H]1CN(C)C | 0.4
C[C@@H]1CN([C@@H](C)CO)C(=O)c2cccc(NC(=O)Nc3ccc4c(c3)OCO4)c2O[C@H]1CN(C)S(=O)(=O)c1ccccc1 | -1.0
COc1ccc(CN(C)C[C@H]2Oc3ccc(NC(=O)CCN4CCOCC4)cc3C(=O)N([C@@H](C)CO)C[C@@H]2C)cc1 | ?
Going on with the list:
SMILES | A1 apoptosis 2
Cc1noc(C)c1NC(=O)Nc1ccc2c(c1)C(=O)N([C@@H](C)CO)C[C@H](C)[C@@H](CN(C)C(=O)NC(C)C)O2 | -1.2
C[C@@H]1CCCCO[C@H](CN(C)Cc2ccc(C(=O)O)cc2)[C@H](C)CN([C@@H](C)CO)C(=O)c2cc(NC(=O)Nc3ccc(F)cc3)ccc2O1 | -0.4
C[C@@H]1CN([C@@H](C)CO)C(=O)c2cc(NC(=O)CCN3CCOCC3)ccc2O[C@@H]1CN(C)Cc1ccc(C(=O)Nc2ccccc2N)cc1 | -0.8
C[C@H]1CN([C@@H](C)CO)C(=O)c2cccc(NS(C)(=O)=O)c2O[C@H]1CN(C)S(=O)(=O)c1cn(C)cn1 | -0.5
Cc1noc(C)c1NC(=O)N(C)C[C@H]1OCCCC[C@@H](C)Oc2ccc(NC(=O)c3ccncc3)cc2C(=O)N([C@H](C)CO)C[C@@H]1C | 0.0
Cc1cc(C(=O)Nc2cccc3c2O[C@@H](CN(C)C(=O)Nc2c(C)noc2C)[C@H](C)CN([C@H](C)CO)C3=O)n(C)n1 | 0.9
COc1ccc(NC(=O)Nc2ccc3c(c2)C(=O)N([C@@H](C)CO)C[C@H](C)[C@@H](CN(C)C(=O)Nc2ccc(C(F)(F)F)cc2)O3)cc1 | -0.7
C[C@@H]1CCCCO[C@H](CN(C)C(=O)C2CCCCC2)[C@H](C)CN([C@H](C)CO)C(=O)c2cc(NC(=O)CCC(F)(F)F)ccc2O1 | 0.9
C[C@H](CO)N1C[C@H](C)[C@H](CN(C)C(=O)Nc2ccc(C(F)(F)F)cc2)Oc2c(NS(=O)(=O)c3cn(C)cn3)cccc2C1=O | -0.3
COc1ccc(S(=O)(=O)Nc2ccc3c(c2)C(=O)N([C@@H](C)CO)C[C@H](C)[C@H](CN(C)Cc2ccc(C(F)(F)F)cc2)OCCCC[C@H](C)O3)cc1 | -0.9
COc1ccc(S(=O)(=O)Nc2ccc3c(c2)C(=O)N([C@H](C)CO)C[C@H](C)[C@@H](CN(C)CC2CC2)OCCCC[C@@H](C)O3)cc1 | 0.6
Cc1ccc(S(=O)(=O)N(C)C[C@H]2Oc3ccc(NC(=O)NC(C)C)cc3C(=O)N([C@H](C)CO)C[C@@H]2C)cc1 | 0.7
COc1ccccc1S(=O)(=O)N(C)C[C@@H]1OCc2cnnn2CCCC(=O)N([C@H](C)CO)C[C@H]1C | -0.3
C[C@H]1CCCCO[C@@H](CN(C)C(=O)Nc2ccc(F)cc2)[C@@H](C)CN([C@@H](C)CO)C(=O)c2cc(NC(=O)c3ccncc3)ccc2O1 | 0.5
Cc1noc(C)c1NC(=O)Nc1cccc2c1O[C@@H](CN(C)C)[C@@H](C)CN([C@@H](C)CO)C2=O | 1.0
C[C@H](CO)N1C[C@H](C)[C@@H](CN(C)S(=O)(=O)c2cccs2)OCCCC[C@H](C)Oc2ccc(NC(=O)c3ccccc3)cc2C1=O | 0.7
Cc1noc(C)c1NC(=O)Nc1ccc2c(c1)C(=O)N([C@@H](C)CO)C[C@@H](C)[C@H](CN(C)C(=O)NC1CCCCC1)OCCCC[C@H](C)O2 | -0.1
C[C@H](CO)N1C[C@H](C)[C@H](CN(C)C(=O)Nc2ccc3c(c2)OCO3)OCCCC[C@H](C)Oc2ccc(NC(=O)Nc3cccc4ccccc34)cc2C1=O | 0.7
C[C@H]1CN([C@@H](C)CO)C(=O)Cc2cc(NC(=O)Nc3ccccc3)ccc2O[C@@H]1CN(C)S(=O)(=O)c1cn(C)cn1 | -0.5
C[C@H]1CN([C@@H](C)CO)C(=O)c2cc(NC(=O)CCCN(C)C)ccc2O[C@H]1CN(C)Cc1ccncc1 | 1.5
COc1ccccc1CN(C)C[C@H]1OCc2cn(nn2)CCCC(=O)N([C@@H](C)CO)C[C@H]1C | 0.0
C[C@H](CO)N1C[C@H](C)[C@@H](CN(C)Cc2ccc(Cl)c(Cl)c2)Oc2c(NC(=O)c3ccncc3)cccc2C1=O | 0.9
C[C@H](CO)N1C[C@H](C)[C@H](CN(C)C(=O)Nc2cccc3ccccc23)Oc2ccc(N(C)C)cc2CC1=O | 0.6
C[C@@H]1CN([C@@H](C)CO)C(=O)c2cc(NC(=O)Nc3ccc(F)cc3)ccc2O[C@@H]1CN(C)Cc1ccc(C(F)(F)F)cc1 | -0.9
C[C@@H]1CN([C@@H](C)CO)C(=O)c2cccc(NC(=O)C3CCOCC3)c2O[C@H]1CN(C)C(=O)Nc1ccc2c(c1)OCO2 | -0.8

As a working copy, four of the compounds above.
SMILES | A1 apoptosis 2
C[C@@H]1CN([C@H](C)CO)C(=O)c2cc(NS(=O)(=O)c3ccc(Cl)cc3)ccc2O[C@H]1CN(C)C(=O)NC1CCCCC1 | 1.0
CC(C)NC(=O)N(C)C[C@H]1Oc2c(NC(=O)NC3CCCCC3)cccc2C(=O)N([C@@H](C)CO)C[C@H]1C | 0.1
C[C@@H]1CN([C@H](C)CO)C(=O)c2cc(NS(=O)(=O)c3ccc(F)cc3)ccc2O[C@H]1CN(C)Cc1ccc2c(c1)OCO2 | 0.5
C[C@H]1CCCCO[C@H](CN(C)C(=O)Nc2ccc(C(F)(F)F)cc2)[C@@H](C)CN([C@@H](C)CO)C(=O)c2cc(NC(=O)NC3CCCCC3)ccc2O1 | 1.8

New compounds follow.
SMILES | A1 apoptosis 2
C[C@H](CO)N1C[C@H](C)[C@H](CN(C)Cc2ccc3c(c2)OCO3)Oc2ccc(NC(=O)C3CC3)cc2CC1=O | 0.1
C[C@H]1CN([C@@H](C)CO)C(=O)c2cc(NC(=O)c3ccncc3)ccc2O[C@@H]1CN(C)C(=O)Nc1ccc2c(c1)OCO2 | 0.5
Cc1ccc(CN(C)C[C@@H]2OCc3cn(nn3)CCCC(=O)N([C@H](C)CO)C[C@H]2C)cc1 | 2.0
C[C@H](CO)N1C[C@H](C)[C@H](CN(C)Cc2ccc(-c3ccccc3)cc2)Oc2ccc(NC(=O)C3CCCCC3)cc2C1=O | -1.6
COc1ccc(S(=O)(=O)N(C)C[C@@H]2Oc3ccc(NC(=O)Nc4cccc5ccccc45)cc3C(=O)N([C@H](C)CO)C[C@H]2C)cc1 | 1.0
COC(=O)c1c2oc(c1C(=O)OC)C(=O)N(C)Cc1cn(nn1)C[C@@H](Cc1ccccc1)NC(=O)N[C@H](CO)CC2 | 1.2
CCCN(C)C[C@H]1OCCCC[C@H](C)Oc2ccc(NS(=O)(=O)c3ccc(F)cc3)cc2C(=O)N([C@@H](C)CO)C[C@H]1C | -0.1
C[C@H]1CN([C@@H](C)CO)C(=O)c2cccc(NC(=O)c3ccncc3)c2O[C@@H]1CN(C)C | 0.0
COc1ccc(CN(C)C[C@H]2Oc3ccc(NS(=O)(=O)c4ccc(Cl)cc4)cc3C(=O)N([C@H](C)CO)C[C@H]2C)cc1 | -1.7
COc1ccccc1NC(=O)N(C)C[C@H]1OCc2cnnn2CCCC(=O)N([C@H](C)CO)C[C@@H]1C | 1.4
C[C@@H]1CN([C@@H](C)CO)C(=O)c2cc(NS(=O)(=O)c3ccc(F)cc3)ccc2O[C@@H]1CN(C)Cc1ccc2c(c1)OCO2 | -0.8
C[C@H](CO)N1C[C@H](C)[C@H](CN(C)Cc2ccc3c(c2)OCO3)Oc2c(NC(=O)Nc3ccc4c(c3)OCO4)cccc2C1=O | 1.4
C[C@@H]1CN([C@@H](C)CO)C(=O)c2cc(NC(=O)NC3CCCCC3)ccc2O[C@H]1CN(C)C(=O)NC1CCCCC1 | 0.8
C[C@H](CO)N1C[C@H](C)[C@H](CN(C)C(=O)OCc2ccccc2)OCc2cn(nn2)CCCC1=O | 1.1
C[C@@H]1CCCCO[C@@H](CN(C)C(=O)Cc2ccccc2)[C@H](C)CN([C@@H](C)CO)C(=O)c2cc(NC(=O)c3ccncc3)ccc2O1 | 0.8
C=CCNC(=O)[C@H]1[C@@H]2C(=O)O[C@@H](c3ccccc3)[C@@H](c3ccccc3)N2[C@@H](c2ccccc2OCCO)[C@]12C(=O)N(C(=O)OCCOC)c1ccc(C#Cc3ccc(OC)cc3)cc12 | 0.9
C[C@H]1CN([C@@H](C)CO)C(=O)c2cccc(NC(=O)C3CC3)c2O[C@H]1CN(C)Cc1ccc2c(c1)OCO2 | -0.1
COc1ccc(NC(=O)Nc2cccc3c2O[C@@H](CN(C)C(=O)Nc2cccc4ccccc24)[C@@H](C)CN([C@H](C)CO)C3=O)cc1 | -1.2
CC(C)NC(=O)N(C)C[C@H]1Oc2ccc(NC(=O)CCC(F)(F)F)cc2C(=O)N([C@H](C)CO)C[C@H]1C | 0.0
C[C@@H]1CCCCO[C@@H](CN(C)Cc2ccc(C(=O)O)cc2)[C@@H](C)CN([C@H](C)CO)C(=O)c2cc(NC(=O)Cc3ccccc3)ccc2O1 | 0.6
C[C@H](CO)N1C[C@H](C)[C@@H](CN(C)Cc2ccc3c(c2)OCO3)OCCCC[C@H](C)Oc2ccc(NC(=O)CCC(F)(F)F)cc2C1=O | 0.6

Rewritten as labelled records: part of the list above.
> C[C@H](CO)N1C[C@H](C)[C@H](CN(C)C(=O)OCc2ccccc2)OCc2cn(nn2)CCCC1=O
  A1 apoptosis 2 = 1.1
> Cc1ccc(CN(C)C[C@@H]2OCc3cn(nn3)CCCC(=O)N([C@H](C)CO)C[C@H]2C)cc1
  A1 apoptosis 2 = 2.0
> CC(C)NC(=O)N(C)C[C@H]1Oc2c(NC(=O)NC3CCCCC3)cccc2C(=O)N([C@@H](C)CO)C[C@H]1C
  A1 apoptosis 2 = 0.1
> C[C@@H]1CCCCO[C@H](CN(C)Cc2ccc(C(=O)O)cc2)[C@H](C)CN([C@@H](C)CO)C(=O)c2cc(NC(=O)Nc3ccc(F)cc3)ccc2O1
  A1 apoptosis 2 = -0.4
